# AID504770 – E. coli YBA685 growth inhibition, screen for V. cholerae RctB inhibitors; E. coli YBA685 rctB-dependent plasmid, OD600 growth, 3 h; active compounds read low; z-score (concentration not given with the values); 130,000 compounds, 0.27% hits;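 active means z-score under -2 on both plates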;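 further: wells of about 30 µL received 100 nL stock; score is relative to mean and SD of the test wells; the first replicate is given; strong numbers were not always called active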
# CapD inh – blocks the Bacillus anthracis CapD enzyme; purified CapD enzyme, fluorescence intensity read-out; active compounds read low; some hits fall short of the stated cut; z-score (concentration not given with the values); 140,000 compounds, 0.23% hits;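 active means z-score under -4 in either of two replicates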;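 further: stock transfer was 100 nL into about 40 µL; score is relative to mean and spread of the plate; one replicate is shown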
# * marks the source's active call; other numbers are inactive results; x = not tested or not shown. This is a subset (hit frequency here may not be typical).
SMILES,AID504770,CapD inh
O=C(OCn1cncn1)c1ccc(Cl)cc1Cl,-0.25,-0.16
Clc1ccc(OCc2nn3cc(-c4ccccc4)c4c3n2CCCC4)c(Cl)c1,x,0.12
CNc1nc(N2CCCC2)ncc1F,0.85,7.2
CCC1C(=O)C(CC)C(c2ccccc2)NC1c1ccccc1 (stereo not given),-0.25,-0.35
COc1cc(C2Nc3ccccc3NC3=C2C(=O)CC(c2ccc(Cl)cc2)C3)cc(OC)c1OC (stereo not given),x,-0.79
COc1cc(C(=O)N(Cc2ccc(S(C)(=O)=O)cc2)c2ccccn2)cc(OC)c1OC,x,-0.52
COC(=O)c1cc2nc(-c3ccccc3)cc(C(F)(F)F)n2n1,-0.3,x
O=C(O)C1CC=CCC1C(=O)Nc1ccc(Cl)cc1 (stereo not given),-0.95,0.39
CCOC(=O)c1csc2c1CCC/C2=N/OC(C)=O,-0.25,x
COc1cc(/C=C\C(C)=N\O)ccc1OCc1ccccc1,0.65,2
Cc1nc2ccccc2n1CC(=O)OCC(=O)NC1CC1,1.9,x
O=C(OCc1c(F)cccc1Cl)c1cnc2sccn2c1=O,-0.6,x

# Compound profiles, from the list above. Order of values: AID504770 | CapD inh
# O=C(OCn1cncn1)c1ccc(Cl)cc1Cl as listed: -0.25 | -0.16
# CCOC(=O)c1csc2c1CCC/C2=N/OC(C)=O as listed: -0.25 | x

# Further structures follow:
SMILES,AID504770,CapD inh
O=C1C2CNC3(C(=O)Nc4ccccc43)C2C(=O)N1C1CCCCC1 (stereo not given),-0.15,0.42
CCC(Sc1nc2n[nH]c(C)c2c(=N)n1-c1ccc(Br)cc1)C(=O)N1CCOCC1 (stereo not given),x,1.2
CCc1cc2c(OC(=O)N(C)C)ncnc2s1,-0.65,1.2
O=C1CCCN1CCCNc1nc2ccccc2n2cnnc12,-0.85,-0.34
O=C1Cc2cc(C(=O)CSc3nnc4c(n3)CCCC4)ccc2N1,-0.65,x
CC1(C)CC(=O)C(C2(O)C(=O)N(Cc3ccccc3)c3ccccc32)CO1 (stereo not given),-0.9,-0.81
CC(C)CP(=O)(O)c1ccccc1,-0.8,-0.24
CCO/C=C(\C#N)C(=O)Nc1ccc(F)c(Cl)c1,-0.6,0.56
COc1cccc(C2C(C#N)=C(N)Oc3n[nH]c(C)c32)c1OC(=O)N1CCOCC1 (stereo not given),x,-0.075
CC(C)c1ccc(NC2=NCC(=O)N2Cc2ccccc2)cc1,-0.6,x
CCOC(=O)c1c(C)nsc1NN=C(C#N)C(=O)C(C)(C)C,0.4,-0.53
COC(=O)c1scc(S(=O)(=O)C(C)C)c1N/N=C(\C#N)C(=O)c1ccc(Cl)cc1,x,-1.1
Nc1ncc(S(=O)(=O)c2ccc(Cl)cc2)c(N)n1,1.9,-0.03
CN(C)S(=O)(=O)c1cccc(CSc2cccc[n+]2[O-])c1,-0.45,x
O=S(=O)(c1ccccc1)C1(S(=O)(=O)c2ccccc2)CCCC1,-0.35,0.57
Cc1cc(=O)[nH]c(SCC(=O)c2ccccc2)n1,-1,-0.17
COc1ccc(C2NC(C(=O)O)C3C(=O)N(c4ccc(F)cc4)C(=O)C23)c(OC)c1OC (stereo not given),2,-0.77
Nc1cc(N)cc(C(F)(F)C(F)(F)C(F)(F)F)c1,0.35,-0.09
COC(=O)c1c(OC)ccc([N+](=O)[O-])c1OC,x,-0.71
CCOC(=O)C(C)On1c(-c2ccccc2)nc2ccc([N+](=O)[O-])cc21 (stereo not given),x,-1.7
CCOc1cc(/C=C2/SC(=S)N(c3ccc4c(c3)OCO4)C2=O)ccc1O,-0.05,-0.12
CCCSc1nc2ccccc2n1CN(C)Cc1ccc2c(c1)OCCO2,-0.05,x
O=C(NNC(=O)c1ccccc1)C(=O)c1c(-c2ccccc2)[nH]c2ccccc12,x,-1.2
OCC1OC(Oc2ccc(Br)cc2)C(O)C(O)C1O (stereo not given),x,-0.005
CC(C)Oc1ccc(CSC(=N)N)cc1,-0.1,0.22
CCCN1CCC(N(C(=O)c2ccc(NC(=O)c3ccccc3OC(C)=O)cc2)C2CC2)CC1,x,-0.32
O=C1NC(=Nc2ccccc2)S/C1=C\c1ccc(C(=O)O)cc1,0.1,x
CC(=O)Oc1ccc(N(C(C)=O)S(=O)(=O)c2cccs2)c(C)c1,0.15,x
C=CCn1c(Cc2ccccc2)nnc1SCC(=O)N1CCc2ccccc21,-0.35,x
COc1ccc(Cc2nc(C(=O)Nc3cccc(C(F)(F)F)c3)cs2)cc1,x,-0.72
CCCCN(CC)C(=O)CSc1nc2cc(C(=O)NCCOC)ccc2c(=O)n1Cc1ccco1,x,0.51
Cc1ccc(NC(=O)CSc2nc(=O)cc(N)n2Cc2ccco2)cc1,-1.2,0.76
CCOC(=O)c1oc2ccccc2c1Cn1ncc(Cl)c(Cl)c1=O,-1.1,x
O=C1Nc2cc(C(=O)N3CCCC3)ccc2S/C1=C\c1ccccc1,0,0.51
Cc1ccc(C(=O)Nc2nccc(-c3ccc4c(c3)OCCO4)n2)cc1,-0.95,52
Cc1nn2c(CN(C(=O)c3ccco3)c3ccccc3)nnc2c2ccccc12,0.55,1.7
O=C(/C=C/c1ccco1)OCCN1C(=O)c2ccccc2C1=O,0.45,x
CCc1ccc(-c2csc(Nc3ccc(S(=O)(=O)Nc4cc(OC)nc(OC)n4)cc3)n2)cc1,-0.8,0.45
CNC(=O)c1ccccc1NC(=O)CC1(CC(=O)O)CCCCC1,-0.2,x
Cc1ccc(NC(=O)CC(NCc2ccco2)C(=O)O)cc1C (stereo not given),2.5,-1
N#Cc1c(-c2ccccc2)cc(-c2ccccc2)nc1SCC(=O)Nc1ccc(S(N)(=O)=O)cc1,x,0.22
O=c1c2cc(NC(=S)N3CCCCCC3)ccc2nc2n1CCCCC2,2.4,-1.2
CCOC(=O)c1cc2cnccc2nc1-c1cc(Cl)cc(Cl)c1,x,-0.66
COc1ccc(NC(=O)c2cc3cc(Br)ccc3oc2=O)c(OC)c1,x,-0.12
N#CCC(=O)Nc1ccccc1Oc1cc(Cl)ccc1Cl,-0.25,-0.13
CN=C(C)/C(C(=O)OC)=C(/O)c1ccccc1F,-0.05,-1.1
CSc1ccc(/C=C(\C#N)C(=O)NC2CCCCC2)cc1,3.2,x
Nc1n[nH]c(S(=O)(=O)Cc2ccccc2)n1,-0.9,-0.11
CC(C)S(=O)(=O)C/C(N)=N/OCc1c(Cl)cccc1Cl,x,-0.095
Cc1[nH]c2ccccc2c1CCN1C(=O)CCC1=O,-0.45,0.65
CC(=O)NCCN1C(=O)S/C(=C\c2cccs2)C1=O,-1.4,x
NC1=NC2(CCSC2)n2c(nc3ccccc32)N1 (stereo not given),-0.1,x
COc1ccc(OC)c(-n2cnc3cc(C(=O)NCCc4ccc(Cl)cc4)ccc32)c1,x,0.45
Cc1nn(Cc2ccccc2)c(C)c1C(=O)OCC(=O)NCc1ccco1,-0.4,x
CCOC(=O)c1c(NC(C)=O)sc2c(NC(C)=O)cccc12,0,x
N#C/C(=C\c1ccc(-c2ccc(S(=O)(=O)N3CCOCC3)cc2)o1)C(=O)NC1CC1,1.4,x
Cc1ccccc1CNCCc1c[nH]c2ccccc12,-0.45,0.52
O=C(CCC(=O)N1CCc2ccccc2C1)Nc1nc(-c2cc3cc(Br)ccc3oc2=O)cs1,-0.3,0.47
O=C(COc1ccc([N+](=O)[O-])cc1)NNC(=O)c1cc(-c2ccccc2)nc2ccccc12,x,0.89
O=C(O)CN1C(=O)/C(=C2\Sc3ccccc3N2CCCS(=O)(=O)O)SC1=S,x,31

# Carrying on:
SMILES,AID504770,CapD inh
Nc1ccccc1CN1CCCC1,-0.7,x
c1nnc(-c2ccc3c(c2)OCO3)o1,-1.4,x
Cc1c(C(=O)O)cnn1-c1ccccc1,x,0.065
CCCc1nc(C)cc(N2CCN(C)CC2)n1,1.4,-1
O=C(CSc1ccc(Br)cc1)c1ccc(Cl)s1,-0.8,0.86
Cn1cc(S(=O)(=O)N2CCOCC2)cc1C(=O)N1CCN(c2cccc(C(F)(F)F)c2)CC1,1.1,0.035
Cc1cccc(OCC(=O)N2CCCc3ccccc32)c1,0,6.3
O=C(c1cc(=O)c2ccccc2o1)N1CCc2ccccc21,0.45,0.48
Cc1ccc(OCC(=O)O)c2c1CCC2,2.5,-1.2
O=C(c1cccnc1NCCc1ccccc1)N1CCCC1,1.2,x
COc1ccc(N=Cc2ccc3c(c2)OCCO3)cc1,-0.9,0.55
CN(N)c1nc(-c2ccccc2)cc(-c2ccccc2)n1,1.1,0.08
Cc1cc(NC(=O)Cc2ccccc2)ccc1O,-0.45,0.27
CCC1(C)Cc2c(sc3nc4n(c(=O)c23)CCCS4)CO1 (stereo not given),-0.75,2.9
CCOC(=O)C1CCCN(S(=O)(=O)c2ccc(F)c(C(=O)Nc3ccc(Br)cc3F)c2)C1 (stereo not given),x,0.93
CCCOc1ccc2oc(=O)c3c(c2c1)CCCN3C(=O)CN1CC(C)CC(C)C1 (stereo not given),-0.4,1.2
CC(C)(C)c1ccc(C(=O)N/N=C/c2ccc(OCCCF)cc2)cc1,x,1.3
Fc1c(F)c(-n2cccn2)c(F)c(F)c1-c1c(F)c(F)c(-n2cccn2)c(F)c1F,0,-0.51
O=C(Cn1ccc(C(F)(F)F)n1)c1ccc(Cl)cc1,-0.8,-0.015
CCc1ccc(C2Nc3ccc4ncccc4c3C3=C2C(=O)CCC3)cc1 (stereo not given),x,0.75
CCOC(=O)c1cnc(-c2ccccc2)nc1Sc1cccc(Cl)c1,x,0.48
Cn1cc(/C=N/NC(=O)C(O)c2ccccc2)c2ccccc21 (stereo not given),1.4,-1.3
Nc1cc(C(=O)O)ccc1NCCCN1CCOCC1,-2.2,47
O=C(CSc1nc2c(oc3ccccc32)c(=O)n1C1CCCC1)Nc1nccs1,0.6,x
Nc1ncc(S(=O)(=O)c2cccc(C(F)(F)F)c2)c(-c2ccccn2)n1,x,-0.07
COc1cc(Br)c(CN2CCN(C(=O)OCC(C)C3CCCCC3)CC2)cc1OC (stereo not given),x,0.055
O=C(CSc1ncc(CO)n1Cc1ccccc1)N1CCc2ccccc21,-0.5,-0.02
O=C(NCCCN1CCCC1)c1ccccc1Cl,-0.05,x
CN(C)CCN(C)Cc1ccccc1,-0.75,-0.025
CN(CC(=O)NN1C(=O)NC2(CCCCC2)C1=O)Cc1ccc(Cl)cc1,0.85,x
CCOC(=O)c1ccc(NC(=O)CON=c2c(C)nc3ccccc3nc2C)cc1,0.35,x
COc1ccc(C(=O)NCCn2cc(SC(C)c3ccccc3)c3ccccc32)cc1 (stereo not given),0.7,40
COC(=O)c1ccc(NC(=O)C2CC(=O)N(Cc3ccc4c(c3)OCO4)C(=Nc3ccc(F)cc3)S2)cc1 (stereo not given),x,-0.48
Cc1cccc(C)c1NC(=O)CCN1CC(C)OC(C)C1 (stereo not given),-0.45,0.065
Nc1nc2ccccc2cc1S(=O)(=O)c1ccccc1,-0.75,4.1
Cc1ccc(CNC(=O)CN(c2ccc(C(C)C)cc2)S(=O)(=O)c2c(C)noc2C)cc1,2,-0.4

# Gathered by group, the compounds so far with a nitro group on carbon (three)
SMILES,AID504770,CapD inh
COC(=O)c1c(OC)ccc([N+](=O)[O-])c1OC,x,-0.71
CCOC(=O)C(C)On1c(-c2ccccc2)nc2ccc([N+](=O)[O-])cc21 (stereo not given),x,-1.7
O=C(COc1ccc([N+](=O)[O-])cc1)NNC(=O)c1cc(-c2ccccc2)nc2ccccc12,x,0.89

# Remaining list, next part
SMILES,AID504770,CapD inh
CC1CC(C)CN(C(=S)Nc2ccccc2)C1 (stereo not given),1.7,x
CCOC(=O)c1oc2ccccc2c1CN1CCSC1=Nc1ccc(OC)cc1,0.2,x
CCC(SC1=Nc2ccccc2C2=NC(c3ccccc3)C(=O)N12)C(=O)NCc1ccc(C)cc1 (stereo not given),-0.15,0.18
Cc1cccc(CC(=O)Nc2c(C(N)=O)oc3ccccc23)c1,-1.2,x
O=C1C(=Nc2ccc(Oc3ccccc3)cc2)c2ccccc2N1c1ccccc1,x,0.59
CCN(CC)C(=O)Cn1cnc2c(cnn2-c2cccc(Cl)c2)c1=O,-0.9,x
Cc1ccc(NC(=O)N(C)CCOc2ccccc2)cc1,0.4,x
CCC(c1nc2ccccc2c(=O)n1CCCn1ccnc1)N1C(=O)c2ccccc2C1=O (stereo not given),-1.1,0.09
COc1ccc(NC(=O)CSc2nc3ccccc3c(=O)n2Cc2ccc3c(c2)OCO3)c(OC)c1,0.05,0.02
CS(=O)(=O)c1ccc(NC(=O)Cc2n[nH]c(=O)c3ccccc23)cc1,0.5,x
O=C(NCC1(c2ccccc2)CCOCC1)c1cccc(Cl)c1,0.25,0.015
O=C(NCc1ccccc1)c1ccc(=O)[nH]n1,-0.55,x

# 5 entries out of the list, arranged by SMILES length, falling:
SMILES,AID504770,CapD inh
CCC(c1nc2ccccc2c(=O)n1CCCn1ccnc1)N1C(=O)c2ccccc2C1=O (stereo not given),-1.1,0.09
CS(=O)(=O)c1ccc(NC(=O)Cc2n[nH]c(=O)c3ccccc23)cc1,0.5,x
CCN(CC)C(=O)Cn1cnc2c(cnn2-c2cccc(Cl)c2)c1=O,-0.9,x
O=C(NCC1(c2ccccc2)CCOCC1)c1cccc(Cl)c1,0.25,0.015
O=C(NCc1ccccc1)c1ccc(=O)[nH]n1,-0.55,x

# Carrying on.
SMILES,AID504770,CapD inh
Cc1nc(Cc2nnc(SCC(=O)Nc3ccc(S(=O)(=O)N4CCCC4)cc3)o2)cs1,-0.8,x
Cc1ccc2ncnc(Oc3ncccc3N)c2c1,0.5,-0.23
CC(=O)c1cc2c(cc1Br)OCCO2,x,0.21
CCOc1ccc2nc(SCC(=O)NC3CC3)sc2c1,-0.1,0.19
COc1ccc(OCCNC(=O)c2ccccc2-c2ccccc2)cc1,x,-0.77
COCCOC(=O)C1=C(C)NC2=C(C(=O)CC(c3ccc(OC)cc3)C2)C1c1ccc(OC(C)=O)c(OC)c1 (stereo not given),x,18
CN(C)c1ccc(C=C(C#N)C#N)cc1,x,-0.06
